# Bioassay records: PubChem BioAssay, Fisher Drug Discovery Resource Center
# NPYLR7 agonist: mosquito NPYLR7 agonism. HEK293T NPYLR7/Galpha15, GCaMP6s calcium fluorescence. activation, % at 10 µM. 270,000 tested, 0.15% active. AID 1259423; in the data active means activation above about 40%;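 further: 0% = vehicle and 100% = reference agonist at the receptor; some compounds past the cut are filed as inactive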
# NPYLR7 agonist max-min: second read-out of NPYLR7 agonist, no call of its own (marks repeat the call); activation, %; measured here: Max-Min RFU normalised activation; some inactives read as strong as hits;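 span of the calcium signal over five minutes; 0% = vehicle and 100% = native peptide agonist; compound fluorescence can raise it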
# An asterisk follows results filed as active; & = joins results of further samples. These rows are one share of the data (hit frequency here may not be typical).
SMILES,NPYLR7 agonist,NPYLR7 agonist max-min
O=C1OCCC1Sc1nncn1-c1ccccc1 (stereo not given),-1,-3
O=C1CCC(C(=O)N2CCN(c3cnccn3)CC2)CN1CCc1ccccc1 (stereo not given),12,0
Nc1nnc(-c2cc(-c3ccc4c(c3)OCO4)on2)o1,3,0
CC(=O)Nc1ccc(CN(C)c2c(C)nc3ccc(C(=O)Nc4cccc(NS(C)(=O)=O)c4)cn23)cc1,10,-1
CCc1nc2c(OCC(=O)c3ccc(Cl)cc3Cl)cccn2c1N(C=O)CC(=O)N(C)C,2,-6
O=C(O)C1C2C(=O)OC3C(Br)C1C1(CC1)C32 (stereo not given),7,5
CC(C)CC(=O)N(Cc1cccc(OS(=O)(=O)C(C)C)c1)Cc1ccco1,6,5
Cc1ccc(C(=O)N2CCCN3CCC[C@H]3C2)cc1NC(=O)C1CC1,21,12
COc1ccccc1CN(CCc1c[nH]c2ccccc12)Cc1nc(C(=O)N2CCCCC2)co1,18,42
CCCCCCCCCCCCSCCOCn1cc(F)c(=O)[nH]c1=O,1,7
CCNC(=O)[C@H]1O[C@@H](n2cnc3c(N)nc(NCCc4ccc(CCC(=O)O)cc4)nc32)C(O)[C@H]1O (stereo not given in full),-8,-19
CCOC(=O)c1cc(-c2cccc(NC(=O)c3c(F)cc(OC)cc3F)c2)n(-c2cccc(C)c2)n1,22,12
Cc1ccccc1NC(=O)CC(=O)N(Cc1ccccn1)C[C@@H]1CCC(=O)N1,0,2
O=c1cc(CN2CCC(O)(CO)CC2)nc2c(O)cccn12,1,-2
CC1CC1C(=O)N1CCCN(c2nc3ccccc3[nH]2)CC1 (stereo not given),4,2
COc1ccc(C2=NN(C(=O)CCC(=O)O)C(c3cccc([N+](=O)[O-])c3)C2)cc1 (stereo not given),-5,-12
Nc1ccc(C23CC4CC(CC(CO)(C4)C2)C3)cc1,10,7
Cn1ccnc1SCCNC(=O)c1cn(-c2ccccc2)nn1,2,4
O=C(c1ccccc1)C1CCN(S(=O)(=O)NCc2ccccc2)CC1,5,3
COc1ccccc1-n1c(SCC(=O)N2CCCC2)nc2c(c1=O)SCC2,-6,-9
Cc1nc(-c2cccc(C(F)(F)F)c2)nc(N2CCN(C(=O)COc3ccc(Cl)cc3)CC2)c1Cc1ccccc1,-6,4
CC1CCCCN1CCCNC(=O)c1csc(CSc2nnc(-c3cccnc3)n2-c2ccccc2F)n1 (stereo not given),14,29
CCOc1ccc(-c2ccc(=O)n(CCNS(=O)(=O)c3ccc4c(c3)CCCC4)n2)cc1,0,-1
CC(Oc1ccc(Cl)cc1Cl)C(=O)NCCn1ncccc1=O (stereo not given),2,-1
O=C(CC1CSc2nc3c(cnn3-c3cccc(Cl)c3)c(=O)n21)Nc1ccccn1 (stereo not given),2,1

# Complete entries from above. Screens in order: NPYLR7 agonist | NPYLR7 agonist max-min
# O=C1CCC(C(=O)N2CCN(c3cnccn3)CC2)CN1CCc1ccccc1 (stereo not given) in the list: 12 | 0
# CC(=O)Nc1ccc(CN(C)c2c(C)nc3ccc(C(=O)Nc4cccc(NS(C)(=O)=O)c4)cn23)cc1 in the list: 10 | -1
# O=C(c1ccccc1)C1CCN(S(=O)(=O)NCc2ccccc2)CC1 in the list: 5 | 3
# CCCCCCCCCCCCSCCOCn1cc(F)c(=O)[nH]c1=O in the list: 1 | 7
# Cc1ccccc1NC(=O)CC(=O)N(Cc1ccccn1)C[C@@H]1CCC(=O)N1 in the list: 0 | 2

# New compounds follow:
SMILES,NPYLR7 agonist,NPYLR7 agonist max-min
Cc1nc(-c2ccccc2)c(C(=O)N(C)Cc2nc(C3CC3)no2)s1,1,-2
CC(=O)NCCC1CN(Cc2ccn(C(C)C)c2)CCO1 (stereo not given),-1,-5
C#CCOCC(O)CN(CCOC)Cc1ccccc1C (stereo not given),-4,7
COc1ccc(NC(=O)N2CCN(C(C(=O)N3CCCCC3)C3CCCC3)CC2)cc1 (stereo not given),-19,-16
COCCCN(CC(=O)N(CCc1c[nH]c2ccccc12)Cc1ccc(F)cc1)S(=O)(=O)c1ccc(F)cc1,2,12
CC(=O)Nc1nc2ccc(NC(=O)c3sc4ccccc4c3Cl)cc2s1,-5,-12
CC(C)CN(CC#Cc1ccccc1)C(=O)C(C)N1CCN(C)CC1 (stereo not given),-3,9
Cc1c(Br)c(C(F)(F)F)nn1CC(=O)Nc1ccc(Oc2cc([N+](=O)[O-])cc([N+](=O)[O-])c2)cc1,-1,0
Cc1cc(=O)n2c(n1)NC(N1CCOCC1)=NC2c1ccccn1 (stereo not given),2,-1
O=C(CCn1cnc2ccccc2c1=O)Nc1cc2c(cc1Br)OCCO2,0,22
Cc1ccc(-c2nc(SC3CCOC3=O)n[nH]2)cc1 (stereo not given),-3,-4
O=C(Cn1cc(C2CC2)nn1)N1CCCc2cccc(Cl)c21,-1,-2
O=S(=O)(NC1CCCN(c2cc(-c3ccncc3)[nH]n2)C1)c1ccc(Cl)cc1 (stereo not given),-9,-11
COc1cccc(CN(Cc2ccc(C(C)(C)O)o2)C2CC2)c1OC,15,13
Cc1noc(C)c1C(=O)N1CCC2(CC1)CN(CC1CCOC1)CCN2C (stereo not given),-3,-2
CCOC(=O)c1sc(NC(=O)C2CC=CCC2C(=O)O)nc1C (stereo not given),10,5
CCc1nc2ccc(C(=O)N3CCN(S(=O)(=O)CC)CC3)cn2c1N(CCN(C)C)CC1CC1,-5,-9
O=C(NCCO)C(=O)Nc1cc2c3c(c1)CCN3C(=O)CC2,9,4
O=c1cc(-c2ccc(F)cc2)ncn1Cc1cccc2ccccc12,-20,-21
CS(=O)(=O)N1C[C@@H]2OC(=O)N(Cc3ccccc3)[C@@H]3CC[C@@H]1C[C@@H]23,24,24
CCCN(CC(=O)Nc1cc(-c2ccccc2)nn1-c1ccccc1Cl)C(=O)/C=C/c1ccccc1,-8,-6
COc1cccc(CNC(=O)C2CCN(C(=O)[C@@H]3CCCN3C(=O)C34CC5CC(CC(C5)C3)C4)CC2)c1,-1,6
CN(C/C=C/c1ccccc1)c1nccc(N2CCC(O)C2)n1 (stereo not given),-5,-8
COc1cc(OC)nc(N2CCCn3nc(C(=O)N4CCOCC4)cc3C2)n1,2,1
O=C(NC1=NCCS1)c1ccccc1NS(=O)(=O)c1ccc(Cl)s1,-1,-4

# Sorted by molecular weight (rising): five of the compounds above
SMILES,NPYLR7 agonist,NPYLR7 agonist max-min
Cc1ccc(-c2nc(SC3CCOC3=O)n[nH]2)cc1 (stereo not given),-3,-4
C#CCOCC(O)CN(CCOC)Cc1ccccc1C (stereo not given),-4,7
CN(C/C=C/c1ccccc1)c1nccc(N2CCC(O)C2)n1 (stereo not given),-5,-8
O=C(NC1=NCCS1)c1ccccc1NS(=O)(=O)c1ccc(Cl)s1,-1,-4
COCCCN(CC(=O)N(CCc1c[nH]c2ccccc12)Cc1ccc(F)cc1)S(=O)(=O)c1ccc(F)cc1,2,12

# Going on with the list:
SMILES,NPYLR7 agonist,NPYLR7 agonist max-min
CC1CCC(=O)N(CN(Cc2cccs2)C2CC2)C1 (stereo not given),1,-3
COC(=O)c1ccc2c(c1)CC(CNC(=O)c1ccc3c(c1)OCO3)O2 (stereo not given),28,20
CCC(NC1CCN(Cc2ccco2)CC1)c1nc(C)c(C)s1 (stereo not given),3,1
Cc1ccc(C2(O)CCN(C(=O)CCc3cc(=O)[nH]o3)CC2)nc1,6,5
O=C(CSc1n[nH]c2nc3ccccc3n12)N1CCCCCC1,5,0
CCN(C/C=C/c1ccccc1)C(=O)Cc1c[nH]c2ccccc12,0,-3
Clc1cccc(-c2csc(NC3CC3)n2)c1,5,4
COc1ccc(Br)cc1S(=O)(=O)NCCN1CCOCC1,3,2
CC(C)(C)c1ccc(S(=O)(=O)NCc2ccco2)cc1,-4,-5
COc1cccc(-c2nn(-c3ccccc3)cc2C=C2C(=O)NC(=O)NC2=O)c1,1,4
COc1ccc(-c2n[nH]c(=S)n2CC(=O)Nc2nc(C)cs2)cc1,13,17
Cc1cccc(NC(=O)N2CCC3(CC2)SCCN3C(=O)CCc2ccccc2)c1,14,13
O=C1CN(C(=O)CCc2nc3ccccc3n(CCc3ccccc3)c2=O)CCN1,-1,-1
Cc1cc(C(=O)NN=C2CCCC(C)C2)c(C)o1 (stereo not given),-4,-5
COc1ccc(-c2cnnc(NCCN3CCCC(O)C3)n2)cc1 (stereo not given),-3,-6
COCC(=O)N1CCCC2(CCN(Cc3cccc(C(=O)OC)n3)C2)C1 (stereo not given),26,16
NC(=O)C1CCN(C2=NC(=O)/C(=C/c3cn(-c4ccccc4)nc3-c3ccncc3)S2)CC1,-8,-1
CCOC(=O)c1cc(-c2cccc(NC(=O)[C@@H]3C[C@H]3c3ccccc3)c2)n(-c2cccc(C)c2)n1,15,9
COc1cccc(C(=O)N2CCc3cc(OC)c(OC)cc3C2c2ccc(F)cc2)c1 (stereo not given),-2,-2
COc1ccc(-c2csc(NC(=O)CCNC(=O)c3ccc(F)cc3F)n2)c(OC)c1,0,0
CN=C1SC(CC(=O)NC(C)C)C(=O)N1C (stereo not given),3,2
Cc1ccc2nc(N3CCN(C(=O)C4CCCN4S(=O)(=O)c4cccs4)CC3)sc2c1 (stereo not given),2,0
O=C(CCn1c(=O)oc2ccccc21)Nc1nc2c(ccc3ccccc32)s1,4,3
CCOC(=O)C1=C(C)N(Cc2cccs2)C(=O)NC1c1cccc(F)c1 (stereo not given),-1,-4
O=C(c1cc(C(F)(F)F)cc(C(F)(F)F)c1)N1CCc2nc(-c3ccccc3)nc(N3CCOCC3)c2C1,-4,0
# (listing goes on)
SMILES,NPYLR7 agonist,NPYLR7 agonist max-min
O=C(c1ccco1)N1CCCN(Cc2ccc3cccc(O)c3n2)CC1,20,14
O=C(c1sccc1OC(F)F)N1CCN(CC(F)F)CC1,7,3
CCOc1ccc(NC(=O)N2CCN(c3cc(C)nc(-c4cccc(C(F)(F)F)c4)n3)CC2)cc1,-4,4
COC(C(=O)Nc1ccnn1C1CCN(C(=O)C2=C(C)OCCO2)CC1)c1ccccc1 (stereo not given),9&-3,2&-3
CCCCC(=O)Nc1ccc(NC(=O)c2cccc(O)c2C)cc1,9,-6
O=C(O)c1cccnc1Sc1ncn[nH]1,-1,5
Nc1ccn([C@@H]2CS[C@H](CO)O2)c(=O)n1,-2&-10,-8&-14
N#Cc1c(NC(=O)COc2cccc(F)c2)sc2c1CCCC2,-1,8
Cc1c(C)n2c3c(=O)n(CCN4CCCCC4)c(=O)n(C)c3nc2n1-c1ccc(F)cc1,-3,-4
COc1cccc(-n2sc3c(c2=S)-c2cc(OC)ccc2NC3(C)C)c1,-1,0
CCOC(=O)c1ccc(N2CC(C(=O)Nc3nc(C)cs3)CC2=O)cc1 (stereo not given),2,29
COCCCN(CC(=O)Nc1cc(-c2ccccc2)nn1-c1ccc(F)cc1)C(=O)Nc1c(C)cccc1C,-11,-3
CC(C)(C)C(=O)NCCc1csc2nc(-c3cccs3)nn12,-3,-4
COc1ccc(OC)c(CN(Cc2ccc(F)cc2)Cc2nc(C(=O)NCc3ccco3)co2)c1,10,41
CCOc1cc(C=CC(=O)N2CCCCC2C(=O)OC)ccc1OCCOc1ccccc1 (stereo not given),-1,5
CCCc1[nH]n(-c2ccccc2)c(=O)c1C1=C([n+]2cccc(C)c2)C(=O)N(CC(C)C)C1=O,-2,2
COc1ccc(N2CCN(C(=O)c3csc(CSc4nnc(Cc5ccccc5)n4-c4ccccc4)n3)CC2)cc1,-14,-8
Cc1cccc(NC(=O)CSc2nc3ccccc3s2)c1C,2,-13
Cc1cc(C)nc(SCc2cc(=O)c(OC(=O)COc3ccc(Cl)cc3Cl)co2)n1,-17,-12
Cc1nc(SCc2cc(=O)n3c(C)csc3n2)c2c(C)c(C)sc2n1,5,1
CCc1ccc(C=Nc2ccc(O)cc2)s1,-1,-4
O=C(O)C=Cc1ccc(Br)o1,-6,-6
Cc1noc(C)c1NC(=O)c1ccc(CN2CCCCC2c2ccn(C)n2)cc1 (stereo not given),3,3
Cc1cc2occ(CC(=O)NC3CCS(=O)(=O)C3)c2cc1C(C)C (stereo not given),-3,-3
O=S(=O)(NCC1(N2CCOCC2)CCCCC1)c1cccs1,0,12
# Later entries.
SMILES,NPYLR7 agonist,NPYLR7 agonist max-min
Cc1nn(C)cc1-c1ccnc(N(C)CC2COc3ccccc3O2)n1 (stereo not given),-2,2
CCc1cc(N2CCN(c3ccccc3Cl)CC2)nc(SCc2ccc(C(=O)N3CCCC3)cc2)n1,-1,2
Cc1ccc(-c2csc3nc(CCC(C)C)[nH]c(=O)c23)s1,7,3
CCOC(=O)c1ccc(N=CC(C#N)c2nc3ccccc3s2)cc1 (stereo not given),1,-1
CC(=O)NC(Cc1ccccc1F)C(=O)N1CCOC(COCc2cccc(C(F)(F)F)c2)C1 (stereo not given),6,8
N#Cc1cccc(C(=O)N2CCC(C(=O)Nc3ccc4c(c3)OCO4)CC2)c1,-4,-4
CCCc1c(C)nn(-c2ccc(C(=O)NCCc3ccccc3)cc2)c1C,0,-3
CCCN(CCCC#N)C1CCc2ccccc2C1 (stereo not given),-3,-6
C=COCC(F)(F)F,-2,-1
CN(Cc1nc(-c2ccccc2)no1)C(=O)c1ccc(CO)o1,4,1
Cc1ccc(C)c(N2CC(O)(c3ccc4c(c3)OCCO4)[N+]3=C2CCCCC3)c1 (stereo not given),-2,-2
N#CC1C(=N)C(C#N)(C#N)C(c2ccc(I)cc2)C=C1C1CC1 (stereo not given),4,2
Cc1ccc(CNc2nc(CN(C)CC3Cc4ccccc4O3)nc3ccccc23)o1 (stereo not given),17,3
Cc1noc(NC(=O)C2CC(c3ccccc3)C2)n1 (stereo not given),-2&11,-3&10
CCN(CC)Cn1c(O)c(N=NC(=O)c2ccccc2)c2ccccc21,6,2

# Compounds above that have bromine:
SMILES,NPYLR7 agonist,NPYLR7 agonist max-min
O=C(O)C1C2C(=O)OC3C(Br)C1C1(CC1)C32 (stereo not given),7,5
Cc1c(Br)c(C(F)(F)F)nn1CC(=O)Nc1ccc(Oc2cc([N+](=O)[O-])cc([N+](=O)[O-])c2)cc1,-1,0
O=C(CCn1cnc2ccccc2c1=O)Nc1cc2c(cc1Br)OCCO2,0,22
COc1ccc(Br)cc1S(=O)(=O)NCCN1CCOCC1,3,2
O=C(O)C=Cc1ccc(Br)o1,-6,-6
